D2 agonist: agonists of human D2 dopamine receptor (beta-arrestin) | actives 0.084% (n = 360,000) | P14416 | DiscoveRx PathHunter D2 beta-arrestin, luminescence, 90 min; 100% = 57 uM dopamine signal | activation, % (no concentration beside the values) | AID 624465; in the data active = activation above about 40%; inconclusive = about 15% to 40%; inactive = below about 15%; also: compound concentration not given in the record; the text of the record calls up to 30% inactive
Target sequence (P14416 whole entry, looked up): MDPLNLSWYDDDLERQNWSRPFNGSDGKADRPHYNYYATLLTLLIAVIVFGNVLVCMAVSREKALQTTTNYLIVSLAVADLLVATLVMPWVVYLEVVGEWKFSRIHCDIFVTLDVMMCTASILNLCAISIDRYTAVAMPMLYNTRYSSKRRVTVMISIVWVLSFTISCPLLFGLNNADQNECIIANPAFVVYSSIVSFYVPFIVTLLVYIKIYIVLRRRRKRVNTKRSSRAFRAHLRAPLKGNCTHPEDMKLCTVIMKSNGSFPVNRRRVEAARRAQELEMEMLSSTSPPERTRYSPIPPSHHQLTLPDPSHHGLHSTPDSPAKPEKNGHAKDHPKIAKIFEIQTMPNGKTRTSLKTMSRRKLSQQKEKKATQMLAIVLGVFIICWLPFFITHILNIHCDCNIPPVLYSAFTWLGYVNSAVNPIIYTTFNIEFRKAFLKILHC
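Agonist mode: compounds alone added to overnight-plated D2 PathHunter cells for 90 min at 37 C, with 57 uM final dopamine (EC100) defining full response. Beta-arrestin recruitment detected by chemiluminescent reagent, read after 1 h at ambient temperature.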
D2 PAM: positive allosteric modulators of human D2 dopamine receptor. P14416. DiscoveRx D2 beta-arrestin cells, luminescence, 90 min; 100% = 57 uM dopamine signal. potentiation, % (no concentration beside the values). actives 0.23% (n = 360,000); active = potentiation of 50% or more; inconclusive = 30% to 50%; inactive = 30% or less;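 also: compound concentration not given in the record; tested on top of an EC20 dose of dopamine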
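D2 cells co-treated with compound plus 50 nM dopamine (EC20) for 90 min at 37 deg C to detect potentiation. Beta-arrestin recruitment was read as enzyme-fragment luminescence after 1 h at ambient temperature. Full response was set by 57 uM dopamine.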
TRPML1 inh: blocks the human TRPML1 channel; activity change, negative = inhibition, % (no concentration beside the values); actives 0.02% (n = 390,000); AID 624415; TRPML1-inducible cells, Ca2+ dye fluorescence, FDSS; hits give low values; inhibition of EC80 agonist-evoked calcium signal; Q9GZU1; in the data active means activity change below about -50%; inconclusive means about -30% to -50%; inactive means above about -30%;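 also: stimulus is agonist 54-4 at its EC80 concentration; % is scaled to controls: 0 for no effect and ±100 for the full control effect; compound concentration not given in the record; the text of the record puts the active cut at -80%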
Target sequence (Q9GZU1 whole entry, looked up): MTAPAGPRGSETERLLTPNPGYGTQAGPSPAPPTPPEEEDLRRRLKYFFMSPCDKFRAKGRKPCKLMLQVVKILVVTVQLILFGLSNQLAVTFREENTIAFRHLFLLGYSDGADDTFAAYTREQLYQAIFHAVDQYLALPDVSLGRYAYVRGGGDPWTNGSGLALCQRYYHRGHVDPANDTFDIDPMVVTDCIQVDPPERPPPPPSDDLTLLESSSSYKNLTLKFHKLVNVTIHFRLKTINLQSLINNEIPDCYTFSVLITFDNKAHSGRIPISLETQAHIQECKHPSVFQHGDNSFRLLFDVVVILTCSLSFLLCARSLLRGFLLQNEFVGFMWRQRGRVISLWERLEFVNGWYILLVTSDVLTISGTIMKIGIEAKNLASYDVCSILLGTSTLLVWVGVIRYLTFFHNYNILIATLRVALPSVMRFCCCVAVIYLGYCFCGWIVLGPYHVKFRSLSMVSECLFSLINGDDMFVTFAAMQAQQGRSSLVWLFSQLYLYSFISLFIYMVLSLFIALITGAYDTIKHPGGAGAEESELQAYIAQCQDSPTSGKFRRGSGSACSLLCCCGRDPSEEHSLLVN
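Tet-induced TRPML1-DL cells loaded with Ca8 no-wash calcium dye were read kinetically on FDSS. Compound addition was followed by EC80 agonist 54-4 (4 uM final); inhibition was read over 110 s.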
Six1-Eya2 inh: blocks human Six1 binding to Eya2. Q15475+O00167. AlphaScreen GST-Six1/His-Eya2 binding, biochemical; hits give low values; control for the full effect not named in the record. activity change, % (test concentration not listed). actives 0.56% (n = 360,000). AID 651725; in the data active = activity change below about -65%; inconclusive = about -30% to -65%; inactive = above about -30%; also: % is scaled to controls: 0 for no effect and ±100 for the full control effect; compound concentration not given in the record
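Six1/Eya2 binding was read as AlphaScreen signal after compounds were pinned into GST-Six1 plus His-tagged Eya2 (5X stock 250/500 nM) in pH 8.0 Tris/NaCl/TCEP buffer, beads added, then incubated 1 h, 37 C, dark.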
PINK1 expr mod: PINK1 expression modulation | PINK1 immunofluorescence, high-content cytometry, 24 h | Potency, µM (titrated, usually from 76.6 µM), for inactives: top-dose activation (PINK1 increase), actives largely listed as activators | actives 0.2% (n = 410,000); active = well fitted activation curve with a large enough effect; inconclusive = small, poorly fitted or top-dose-only effect; inactive = flat fitted curve, though single readings scatter; cell line not stated here;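 also: potency is read from the fitted curve at half-maximal effect; % of control where 0% means no effect; nearly all actives have a fitted effect of over 65% in size; a mitochondrial uncoupler was the plate control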
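Stable cell line treated 24 h with compounds at 5 concentrations (CCCP controls), then fixed and immunostained for PINK1 plus nuclear and cell stains; PINK1 immunofluorescence quantified by laser-scanning microplate cytometry.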
TRPML1 ag: activates the human TRPML1 channel; actives 0.12% (n = 410,000); activation, % (no concentration beside the values); TRPML1-expressing cells, Ca2+ dye fluorescence, FDSS; host cell line not named in the record; reference of the full effect not given here; Q9GZU1; in the data active = activation above about 50%; inconclusive = about 30% to 50%; inactive = below about 30%; also: 0% is about no effect; the text of the record puts the active cut at 80%
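TRPML1-DL cells, Tet-induced overnight (~16 h, 37 degrees C), loaded 45-90 min at room temperature with Ca8 no-wash calcium dye plus quencher. FDSS fluorescence: 10 s baseline, compound pin-transfer, 110 s agonist read, then EC80 54-4 (4uM final) and 110 s antagonist read.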
Numbers without * were called inactive; u = inconclusive; x = not tested or not shown; & = joins results of further samples; [ ] = dose if it differs, or a comment. Compounds as they come. About 1% of those tested had a hit in this group.

SMILES	TRPML1 inh	D2 PAM	Six1-Eya2 inh	D2 agonist	PINK1 expr mod	TRPML1 ag
CSc1nc(O)c(C(c2ccc(F)cc2)c2c(O)nc(SC)[nH]c2=O)c(=O)[nH]1	3.9	-6.6	-8.9	-4.1	1.6%	-0.9
CCN(CC(=O)Nc1c(F)cccc1F)C(=O)CCSc1ccc(F)cc1	16.1	0.3	-5.1	-0.7	-0.5%	0.0
O=C(CN1CCCCC1)NC(=O)NC1CCCCC1	-10.4	-4.7	-0.9	-4.3	-0.3%	0.1
Cc1ccccc1OCCOC(=O)c1ccc(S(=O)(=O)N2CCCC2)cc1	55.2	-3.0	30.7	-2.7	-1.5%	3.3
CCOC(=O)c1ccc(Nc2nc(C(=O)OCC)nc3ccccc23)cc1	23.7&0.2	-24.5	-78.9*	-3.2	7.7%&1.6%	-0.2&-1.2
CCC1(c2ccccc2)NC(=O)N(CC(=O)Nc2ccc(Cl)c(S(=O)(=O)N3CCCCC3)c2)C1=O (stereo not given)	-10.6	4.6	-14.8	0.3	2.9%	0.1
CC(C)(C)c1cc(Cl)ccc1OCCn1ccnc1	3.0	-10.0	-5.3	4.6	1.3%	0.4
Cc1ccc2cccc(O)c2[n+]1[O-]	-21.0	5.0	-1.1	-1.0	1.0%	-0.6
CCOc1ccc(CN(C)C(=O)[C@H](C)NC(=O)c2ccco2)cc1OC	8.9	-0.7	-10.8	-2.6	2.8%	-0.2
Cc1cc(C)n(CC(=O)NC2CCCCC2)n1	-15.2	-3.8	4.3	0.2	u	0.0
CCOC(=O)C1(Cc2cccc(Cl)c2)CCCN(C(=O)c2c(CC)noc2C)C1 (stereo not given)	9.0	-12.5	3.8	-4.1	0.4%	1.0
CC(Sc1ccccc1)C(=O)N/N=C/c1ccccc1 (stereo not given)	9.6	-17.5	0.0	-5.5	-0.4%	1.1
COCCNCCCCOc1c(Cl)cc(C)cc1Br	19.8	-1.9	0.6	-3.0	3.1%	-0.6
CC1CC(C)CN(CCCNC(=O)c2ccc3c(c2)ncn3C2CCCC2)C1 (stereo not given)	-4.7	-32.9	12.8	7.1	0.1%	0.6
Cn1c(Nc2ccccc2)nc2ccccc21	12.6	-7.4	-22.9	0.1	1.8%	0.4
COc1cccc(OC)c1NC(=O)CN1CCC(NC(=O)c2cccc(F)c2)CC1	9.2	-28.0	0.6	-1.9	-2.3%	0.7
O=C(N/N=C/c1cc2c(c([N+](=O)[O-])c1)OCO2)c1ccncc1	2.7	-21.9	-8.0	2.0	5.7%	-0.9
CCOC(=O)c1ccccc1NS(=O)(=O)c1c(C)nc2sccn2c1=O	-8.8	0.0	7.3	-5.2	1.5%	-0.6
CCC1(c2ccccc2)NC(=O)N(CC(=O)NC2CCCCCC2)C1=O (stereo not given)	2.4	2.2	2.5	5.9	0.6%	3.1
O=C(Nc1cccc([N+](=O)[O-])c1)c1cccc(C(=O)Nc2cccc([N+](=O)[O-])c2)c1	7.6	-16.3	2.6	2.5	2.4%	-0.1
CC1(C)CC(=O)C(C=NCCN2CCN(C(=O)NC34CC5CC(CC(C5)C3)C4)CC2)=C(O)C1	-6.7	9.0	1.1	-2.7	-0.6%	-0.4
CCOc1ccccc1NC(=O)COC(=O)Cc1ccsc1	-7.5	-0.1	20.7	-2.3	1.8%	-1.6
O=C(COc1ccccc1Cl)N(Cc1cccc(F)c1)C1CCS(=O)(=O)C1 (stereo not given)	17.5	x	x	x	3.1%	-0.1
Cn1c(=O)[nH]c(=O)c2c1nc(NCCO)n2CC(O)COc1ccccc1 (stereo not given)	7.3	x	x	x	-0.2%	-0.4
O=C(N/N=C/c1cccnc1)c1ccc(O)cc1	-15.6	-1.3	-1.4	-2.8	-0.3%	1.0
COc1ccccc1C(=O)Nc1ccon1	-14.7	-9.0	2.0	-0.3	-5.5%[38.3 µM]	-0.2
O=C(O)C1CCCN(S(=O)(=O)c2ccc(Br)cc2)C1 (stereo not given)	-8.1	4.0	23.5	-2.1	u	0.1
O=C(Nc1ccc(N2CCOCC2)cc1)c1cc(-n2cnnc2)ccc1Cl	5.9	-0.8	0.2	-5.7	0.8%	0.1
CN1c2ccccc2Sc2cc(N)ccc21	6.6	8.1	-22.7	3.1	2.4%	1.1
Cc1cccc(N2CCN(C(=O)CCNS(=O)(=O)c3ccc4c(c3)oc(=O)n4C)CC2C)c1 (stereo not given)	-12.6	3.3	0.3	0.9	0.8%	-0.8
O=C(CCSc1nnc(-c2ccncc2)o1)Nc1ccccc1Cl	-4.0	-3.9	16.0	-2.3	2.3%	0.8
COC(=O)c1cccc(NC(=O)COc2cccc([N+](=O)[O-])c2)c1	9.9	-4.1	3.5	-4.2	1.3%	0.5
CCCCC(=O)Nc1ccc(S(=O)(=O)N2CCCCC2c2cccnc2)cc1 (stereo not given)	-0.5	14.7	-0.6	-1.4	1.1%	0.6
COc1cc(/C=C(\C#N)C(=O)NCC2CCCO2)cc(OC)c1OC (stereo not given)	-2.5	-3.8	-0.2	2.8	-0.2%	1.0
COc1ccc(CNC(=O)Cn2nc([N+](=O)[O-])cc2C)cc1	-17.6	-10.9	0.5	-6.6	-1.4%	1.0
Nc1ncnc2c1ncn2CCOc1ccccc1	-1.9	-4.6	10.6	-0.1	0.0%	-0.2
Cc1cc(C)c(C)c(S(=O)(=O)Nc2cccc(S(=O)(=O)Nc3ccccc3C(=O)O)c2)c1C	-10.7	0.8	137.5	-2.2	0.8%	-0.2
Clc1c(-c2ccccc2)nc2ccccn12	-6.9	-0.7	1.4	-1.1	-0.9%	-0.1
O=C(Nc1ccc(Br)cc1)C1CCC(=O)N1Cc1ccccc1Cl (stereo not given)	-11.8	-5.5	0.5	-0.2	3.2%	0.0
CCOC(=O)C1CCCN(Cc2nc(N)nc(Nc3ccc(OC)cc3)n2)C1 (stereo not given)	24.5	-22.0	-3.9	0.0	0.6%	1.5
Cc1nn(C)c(C)c1CN(C(=O)C1CCC(=O)N(C2CCCCCC2)C1)C(C)C (stereo not given)	4.2	-4.3	5.2	0.0	-0.5%	-0.6
Cc1c(/C=N\NC(=O)C2(C)CC2(Cl)Cl)cnn1C (stereo not given)	-8.9	-13.2	-0.5	-4.4	0.1%	-0.5
O=C(NCCc1ccccc1)Nc1nnc([C@H]2C[C@H](O)[C@@H](CO)O2)s1	x	-6.7	14.0	-2.3	-0.7%	0.8
Clc1ccc(Oc2nc(N3CCOCC3)nc(N3CCOCC3)n2)c(C2CCCCC2)c1	0.6	8.8	-1.2	-6.0	15.0%	17.2
Cc1ccc(-c2nc3nc(C)cc(Nc4ccccc4O)n3n2)cc1	-8.4	x	x	x	11.7%	0.9
Cc1ccc(-c2nc(CS(=O)CC(=O)NC3CCC(C)CC3)c(C)o2)cc1 (stereo not given)	9.9	-1.3	-10.9	-1.6	1.6%	0.8
Cc1nnsc1-c1onc(C)c1C(=O)O/N=C/c1ccc(Cl)cc1	-21.9	-7.7	-14.5	-6.5	-0.5%	0.0
O=C(Cc1ccccc1)NC1CCN(Cc2ccccc2)CC1	-9.3	-20.1	-2.5	-12.3	0.1%	0.6
Cc1cc(C)c(C#N)c(Nc2ccccc2C)n1	1.6	-0.4	6.5	-1.8	5.4%	-0.2
c1ccc(Cc2nnc3sc(-c4ccco4)nn23)cc1	-19.4	-5.3	-11.5	-4.9	-3.1%	0.9
CCN(CC)c1nc(Nc2ccc([N+](=O)[O-])cc2)nc(N(CC)CC)n1	x	3.3	0.9	-0.4	u	x
CCOC(=O)c1cccc(NC(=O)c2ccccc2C)c1	30.0	-15.8	10.5	-4.0	1.7%	1.3
O=C(NN=C1CCCC1)c1ccccc1OCc1ccc(Cl)cc1	-3.0	6.0	5.6	-1.3	-1.2%	-0.7
CCCNC(=O)Cn1c(=O)oc2cc(S(=O)(=O)N3CCCC3)ccc21	6.4	-4.9	4.9	-6.3	-0.2%	0.0
O=C(NCCN1CCOCC1)C1CCN(S(=O)(=O)c2ccccc2)CC1	1.2	-4.1	8.3	-0.9	-0.4%	-0.4
CC(C)(C)C(=O)Nc1nnc(-c2ccncc2)o1	-18.9	-12.0	u	1.2	1.0%	0.4
Cc1cccc(C)c1NC(=O)CCn1cnc2ccccc2c1=O	0.0	-6.5	4.2	7.9	-1.0%	0.4
CC1Sc2ccc(S(=O)(=O)CCC(=O)N3CCN(c4cccc(Cl)c4)CC3)cc2NC1=O (stereo not given)	1.0	-5.2	-5.0	9.3	-0.5%	1.9
COc1ccccc1CNC(=O)C1CCN(S(=O)(=O)c2cccc([N+](=O)[O-])c2)CC1	-0.5	9.6	-19.7	5.4	0.9%	0.0
CC1CCN(C(=O)c2ncn(C)c2C(=O)N2CCC(C)CC2)CC1	18.0	-7.2	-0.2	-1.7	-0.6%	-1.0

Next structures:
SMILES	TRPML1 inh	D2 PAM	Six1-Eya2 inh	D2 agonist	PINK1 expr mod	TRPML1 ag
CCOC(=O)C1=C(CS(=O)(=O)c2ccc(F)cc2)NC(=O)NC1c1ccc(O)c(O)c1 (stereo not given)	7.0	-4.2	8.5	7.8	-0.8%	0.2
Oc1ccccc1N1CCN(Cc2ncc(-c3ccccc3)o2)CC1	-0.8	-15.3	-26.6	-2.7	1.5%	-1.3
Cc1cccc(NC(=S)N(CCCN2CCCC2)Cc2cccn2Cc2ccc(Cl)cc2)c1	1.7	-16.2	-18.4	0.2	-0.5%	-0.3
O=[N+]([O-])c1ccc(Cl)c(C[n+]2cccc3ccccc32)c1	x	6.2	-0.5	0.4	1.9%	x
Nc1nc(Nc2ccccc2)nc(NCc2ccco2)c1[N+](=O)[O-]	10.8	10.7	-16.1	-4.4	0.1%	-0.1
O=C(NC(=S)Nc1ccc(CN2CCOCC2)cc1)c1ccccc1[N+](=O)[O-]	-10.3	-0.9	-0.3	-0.9	2.3%	-0.1
CC[C@@]1(C(=O)OC)N[C@H](CN(C)C(=O)c2ccc(C)cc2)[C@@H]2C(=O)N(C)C(=O)[C@@H]21	7.1	-4.0	4.6	2.5	-0.3%	1.0
Cc1nc(CC(=O)NNS(=O)(=O)c2cccc(Cl)c2Cl)cs1	26.3	-7.4	1.5	-0.1	-0.3%	0.9
CC(C)Oc1ccc(C(=O)N(Cc2ccc(N(C)C)cc2)Cc2ccco2)cc1	-19.0	x	x	x	-0.2%	-0.3
O=C(Nc1ccc2c(c1)CCC2)c1cnc(Cl)c(Cl)c1	4.0	-9.5	5.5	0.2	9.7%	0.2
CCN(CC)CCNC(=O)/C(=C/c1cn(CC)c2ccccc12)NC(=O)c1cc(OC)c(OC)c(OC)c1	19.7	-4.1	-12.0	-8.7	0.2%	-0.5
CCN(CC)c1ccc(/C=N/N2CCN(Cc3cccc4ccccc34)CC2)c(O)c1	2.1	-3.1	u	-5.0	1.8%[38.3 µM]	1.9

From PubChem
